rRNA inh HTS – inhibitors of bacterial rRNA selective over humanized ribosomes; hit rate 1.6% among 350,000; E. coli WT GFP vs humanized-ribosome RFP mutants, fluorescence, 24 h; stronger effect = lower value; DMSO median 0, no signal -100; GFP signal change (wild-type ribosome), % (no concentration beside the values);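 active means significant combined selectivity score with lowered wild-type GFP, culture density cut under 30%, mutant RFP and density less affected; inactive means any of these conditions unmet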; further: one replicate is shown; some compounds called inactive have numbers as strong as hits
FGF22 binding – shifts melting point of recombinant human FGF22; Q9HCT0; recombinant FGF22 thermal shift, SYPRO orange fluorescence; percent of sucrose octasulfate shift, DMSO zero; calls only at 9.99 µM; hit rate 1.5% among 340,000;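 active means melting point raised past a set limit in the mean and every replicate; three in four hits are not shown here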
Target sequence (Q9HCT0 whole entry, looked up): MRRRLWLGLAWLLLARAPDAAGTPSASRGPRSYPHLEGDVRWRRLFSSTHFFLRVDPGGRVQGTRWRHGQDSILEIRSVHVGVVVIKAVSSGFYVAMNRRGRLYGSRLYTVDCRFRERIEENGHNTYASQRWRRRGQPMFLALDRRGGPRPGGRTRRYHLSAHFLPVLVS
AF4-AF9 inh – blocks AF4 peptide binding to human AF9; AlphaScreen, biotin-AF4 peptide binding to FLAG-AF9; P42568; inhibition, % at 10 µM; AID 651704; hit rate 0.47% among 350,000;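 active means every replicate reaching a set inhibition limit, whatever the replicate mean, cut at about 25% in these data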;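 further: 0% = plate neutral control median and 100% = total signal loss; the record names both 10 and 1 µM as test concentration; the first replicate is given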
Target sequence (P42568 whole entry, looked up): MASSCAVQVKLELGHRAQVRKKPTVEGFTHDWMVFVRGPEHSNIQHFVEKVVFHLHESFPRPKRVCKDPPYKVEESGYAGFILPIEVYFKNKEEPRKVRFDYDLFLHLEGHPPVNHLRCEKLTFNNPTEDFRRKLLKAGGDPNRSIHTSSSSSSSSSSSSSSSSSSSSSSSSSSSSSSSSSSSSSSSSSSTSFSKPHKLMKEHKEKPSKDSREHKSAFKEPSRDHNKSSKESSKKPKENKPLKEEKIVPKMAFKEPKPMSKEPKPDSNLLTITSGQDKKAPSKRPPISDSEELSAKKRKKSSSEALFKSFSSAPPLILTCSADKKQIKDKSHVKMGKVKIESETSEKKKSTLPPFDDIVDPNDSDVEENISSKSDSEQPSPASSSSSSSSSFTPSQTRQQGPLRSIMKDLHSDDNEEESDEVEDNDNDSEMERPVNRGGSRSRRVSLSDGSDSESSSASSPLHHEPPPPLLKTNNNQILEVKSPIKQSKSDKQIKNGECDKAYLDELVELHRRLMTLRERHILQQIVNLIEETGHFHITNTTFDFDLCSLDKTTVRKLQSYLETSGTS
rRNA inh HTS OD600 – further read-out of rRNA inh HTS, marked with its call; OD600 change, %; measured here: OD600 growth;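 optical density of the mix in the first replicate; 0 = DMSO median and -100 = no signal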
rRNA inh HTS RFP – further read-out of rRNA inh HTS, marked with its call; RFP signal change, %; measured here: RFP humanized mutant strains;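 first replicate; 0 = DMSO median and -100 = no signal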
Starred values were filed as active, the others as inactive; i = inactive; . = no result given; & = joins results of further samples. A portion of the library (hit frequency here may not be typical).

cpd | mol | rRNA inh HTS | rRNA inh HTS OD600 | rRNA inh HTS RFP
1 | O=C(NCc1ccc(F)cc1)[C@H]1C[C@H]2C(=O)NCC(=O)N2[C@H]1c1cccc(OCCO)c1 | . | . | .
2 | COc1ccc([Si](C)(C)[C@@H]2[C@@H](CC(=O)N(CCO)Cc3ccccc3)O[C@]3(C(=O)N(C)c4ccccc43)[C@H]2C)cc1 | . | . | .
3 | C[C@H]1CN([C@@H](C)CO)C(=O)c2cc(C#Cc3ccc(F)cc3)cnc2O[C@@H]1CN(C)C(=O)Nc1ccc(F)cc1 | . | . | .
4 | COc1cc(C(=O)NN=C2c3ccccc3-c3ccccc32)cc(OC)c1OC | . | . | .
5 | COC(=O)C(CC#Cc1ccc2c(c1)[C@]1(C(=O)N2)[C@H](C(=O)N2CCCCCCC2)[C@H]2C(=O)O[C@H](c3ccccc3)[C@H](c3ccccc3)N2[C@@H]1c1ccc(OCCO)cc1)C(=O)OC | . | . | .
6 | COc1ccc(NC(=O)N2CCCCN3[C@H](CO)[C@H](c4ccc(C#Cc5ccccc5)cc4)[C@@H]3C2)cc1 | . | . | .
7 | COCCCNC(=O)[C@@]1(C)c2ccccc2C(=O)N(Cc2cc(F)cc(C(F)(F)F)c2)[C@H]1c1ccc(CO)cc1 | . | . | .
8 | CCCN(C)C[C@H]1Oc2ncc(-c3ccccc3)cc2C(=O)N([C@@H](C)CO)C[C@H]1C | . | . | .
9 | OC1OC2COC(c3ccccc3)OC2C(O)C1O (stereo unspecified) | . | . | .
10 | C[C@@H]1CCCCO[C@H](CN(C)Cc2ccc(C(F)(F)F)cc2)[C@@H](C)CN([C@@H](C)CO)C(=O)c2cc(NS(C)(=O)=O)ccc2O1 | -1 | -3 | 0.7
11 | C[C@H](CO)N1C[C@H](C)[C@@H](CN(C)C(=O)CCCN(C)C)OCCCC[C@H](C)Oc2ccc(NC(=O)Nc3ccc4c(c3)OCO4)cc2C1=O | 1 | 6 | 0.4
12 | COC(=O)C1=C(C)N(Cc2ccccc2C(F)(F)F)C(=NCc2ccccc2)NC1c1cccc(C(F)(F)F)c1 (stereo unspecified) | -35 | -35 | 25

cpd | FGF22 binding | AF4-AF9 inh
1 | i | -1.9
2 | i | 5.9
3 | i | -0.5
4 | i | 2.2
5 | i | -3.0
6 | i | -5.2
7 | i | -0.7
8 | i | 0.1
9 | i | -1.7
10 | i | .
11 | i | .
12 | i | .

Whole records, quoted from the list. Order of screens: rRNA inh HTS, rRNA inh HTS OD600, rRNA inh HTS RFP, FGF22 binding, AF4-AF9 inh
C[C@H](CO)N1C[C@H](C)[C@@H](CN(C)C(=O)CCCN(C)C)OCCCC[C@H](C)Oc2ccc(NC(=O)Nc3ccc4c(c3)OCO4)cc2C1=O is entered as 1, 6, 0.4, i, .
COc1ccc([Si](C)(C)[C@@H]2[C@@H](CC(=O)N(CCO)Cc3ccccc3)O[C@]3(C(=O)N(C)c4ccccc43)[C@H]2C)cc1 is entered as ., ., ., i, 5.9

Later entries
cpd | mol | rRNA inh HTS | rRNA inh HTS OD600 | rRNA inh HTS RFP
13 | CC(C)C(=O)Nc1ccc2c(c1)C(=O)N(C)[C@H]1CC[C@H](CC(=O)NCc3cccc(F)c3)O[C@@H]1CO2 | -1 | -3 | -0.6
14 | N#Cc1ccc(-c2ccc(C3[C@@H]4CN(C(=O)C5CCCCC5)C[C@H]3N4)cc2)cc1 (stereo partly specified) | -6&-7 | -6&-31 | 3.7&-0.8
15 | COc1ccc2c3c(n(C)c2c1)[C@@H](CO)N(C(=O)Nc1ccc(F)cc1)CC31CCN(C(=O)c2cccnc2)CC1 | -5 | 1 | 2.7
16 | COc1ccc(NC(=O)N(C)C[C@H]2Oc3ccc(NC(=O)Nc4ccc5c(c4)OCO5)cc3CC(=O)N([C@@H](C)CO)C[C@H]2C)cc1 | -7 | 5 | 0.8
17 | N#Cc1ccc(-c2ccc(C3[C@@H]4CN(S(=O)(=O)c5ccc(F)cc5)C[C@H]3N4)cc2)cc1 (stereo partly specified) | -1&-2 | 17&1 | -2.4&1.3
18 | COc1ccc(S(=O)(=O)N(C)C[C@@H]2Oc3c(NS(=O)(=O)c4ccc(F)cc4)cccc3C(=O)N([C@H](C)CO)C[C@@H]2C)cc1 | -7 | -5 | 3.3
19 | COC(=O)C1=C(C)N(Cc2ccccc2C(F)(F)F)C(=NCc2ccc(OC)cc2)NC1c1ccc(C(F)(F)F)cc1 (stereo unspecified) | -43 | -74 | -9.3
20 | COc1ccc(S(=O)(=O)N(C)C[C@H]2Oc3c(NS(=O)(=O)c4ccc(Cl)cc4)cccc3C(=O)N([C@H](C)CO)C[C@H]2C)cc1 | 3 | -6 | -0.9
21 | Cc1ccccc1NC(=O)Nc1ccc2c(c1)C(=O)N(C)[C@H]1CC[C@H](CC(=O)O)O[C@H]1CO2 | 0 | 6 | 0.9
22 | COc1ccc2c3c(n(C)c2c1)[C@@H](CO)N(C(=O)CN(C)C)CC31CN(Cc2nccs2)C1 | 0 | 19 | -0.6
23 | C[C@H](O)C#Cc1ccc2c(c1)O[C@H](CN(C)C(=O)Nc1ccccc1)[C@@H](C)CN([C@H](C)CO)S2(=O)=O | 3 | -2 | 0.1
24 | C[C@@H]1CN(c2ccc(N3CCN(C(=O)OC(C)(C)C)C[C@H]3C)cc2C#N)C[C@H](C)O1 | -18 | -38 | -5.5

cpd | FGF22 binding | AF4-AF9 inh
13 | i | .
14 | i | .
15 | i | .
16 | i | .
17 | i | .
18 | i | .
19 | i | .
20 | i | .
21 | i | .
22 | i | .
23 | i | .
24 | i | .

(list continues)
cpd | mol | rRNA inh HTS | rRNA inh HTS OD600 | rRNA inh HTS RFP
25 | CNC(=O)C[C@@H]1CC[C@@H]2[C@H](COC[C@H](O)CN2Cc2ccc(Cl)c(Cl)c2)O1 | -2 | 1 | -1.7
26 | COc1ccc(NC(=O)Nc2ccc3c(c2)C(=O)N([C@@H](C)CO)C[C@H](C)[C@H](CN(C)C(=O)CCC(F)(F)F)OCCCC[C@@H](C)O3)cc1 | 1 | 4 | -1.3
27 | COc1ccc(S(=O)(=O)Nc2cccc3c2O[C@@H](CN(C)S(=O)(=O)c2ccccc2)[C@H](C)CN([C@@H](C)CO)C3=O)cc1 | 0 | 0 | 0.8
28 | CC(C)c1[nH]nc2c1C(c1ccc3c(c1)OCO3)NC2=O (stereo unspecified) | 26 | 34 | 2.7
29 | COc1ccc(S(=O)(=O)Nc2ccc3c(c2)CC(=O)N([C@H](C)CO)C[C@H](C)[C@H](CN(C)C(=O)Nc2ccc(F)cc2)O3)cc1 | 0 | 0 | 0.3
30 | C[C@H]1CCCCO[C@H](CN(C)Cc2ccc3c(c2)OCO3)[C@@H](C)CN([C@@H](C)CO)C(=O)c2cc(NC(=O)Cc3ccccc3)ccc2O1 | -2 | -1 | -1.3
31 | C[C@H]1CCCCO[C@H](CN(C)S(=O)(=O)c2cn(C)cn2)[C@@H](C)CN([C@@H](C)CO)C(=O)c2cc(NC(=O)Cc3ccccc3)ccc2O1 | -1 | 0 | -2.2
32 | COc1ccc(Cn2c(C)cc(O)cc2=O)cc1 | 1 | 3 | 0.2
33 | C[C@H]1CN([C@@H](C)CO)C(=O)Cc2cc(NC(=O)C3CC3)ccc2O[C@H]1CN(C)CC1CC1 | 5 | 3 | -1.2
34 | CN(C)C(=O)c1cccc(-c2ccc3c(c2)[C@@H]2[C@@H](CCN2C(=O)c2ccc(F)cc2)[C@H](CO)N3C)c1 | 0 | 6 | 4.9
35 | C[C@@H]1CN([C@H](C)CO)C(=O)c2cc(NS(=O)(=O)c3ccc(Cl)cc3)ccc2O[C@@H]1CN(C)S(=O)(=O)c1ccccc1 | -3 | -9 | 1.8
36 | C[C@@H]1CN([C@@H](C)CO)C(=O)c2cc(NC(=O)c3ccncc3)ccc2O[C@@H](C)CCCCO[C@H]1CN(C)C(=O)CCCN(C)C | -1 | 7 | -3.2
37 | CN1CCCCC(NC(=O)c2c(F)cccc2F)C1=O (stereo unspecified) | 17 | 15 | 0.8
38 | COc1cccc(-c2ccc([C@H]3[C@@H](CO)N4CCCCN(C(=O)NC(C)C)C[C@@H]34)cc2)c1 | -1 | 9 | -2.0

cpd | FGF22 binding | AF4-AF9 inh
25 | i | .
26 | i | .
27 | i | .
28 | i | .
29 | i | .
30 | i | .
31 | i | .
32 | i | .
33 | i | .
34 | i | .
35 | i | .
36 | i | .
37 | i | .
38 | i | .

Part of the list above, in transposed form.
25: CNC(=O)C[C@@H]1CC[C@@H]2[C@H](COC[C@H](O)CN2Cc2ccc(Cl)c(Cl)c2)O1
37: CN1CCCCC(NC(=O)c2c(F)cccc2F)C1=O (stereo unspecified)
27: COc1ccc(S(=O)(=O)Nc2cccc3c2O[C@@H](CN(C)S(=O)(=O)c2ccccc2)[C@H](C)CN([C@@H](C)CO)C3=O)cc1
38: COc1cccc(-c2ccc([C@H]3[C@@H](CO)N4CCCCN(C(=O)NC(C)C)C[C@@H]34)cc2)c1
29: COc1ccc(S(=O)(=O)Nc2ccc3c(c2)CC(=O)N([C@H](C)CO)C[C@H](C)[C@H](CN(C)C(=O)Nc2ccc(F)cc2)O3)cc1
26: COc1ccc(NC(=O)Nc2ccc3c(c2)C(=O)N([C@@H](C)CO)C[C@H](C)[C@H](CN(C)C(=O)CCC(F)(F)F)OCCCC[C@@H](C)O3)cc1
30: C[C@H]1CCCCO[C@H](CN(C)Cc2ccc3c(c2)OCO3)[C@@H](C)CN([C@@H](C)CO)C(=O)c2cc(NC(=O)Cc3ccccc3)ccc2O1

assay / entry | 25 | 37 | 27 | 38 | 29 | 26 | 30
rRNA inh HTS | -2 | 17 | 0 | -1 | 0 | 1 | -2
rRNA inh HTS OD600 | 1 | 15 | 0 | 9 | 0 | 4 | -1
rRNA inh HTS RFP | -1.7 | 0.8 | 0.8 | -2.0 | 0.3 | -1.3 | -1.3
FGF22 binding | i | i | i | i | i | i | i
AF4-AF9 inh | . | . | . | . | . | . | .

Assay outcomes (PubChem)
